CtBP-E1A inh: inhibitors of CtBP/E1A interaction. AID 651724. 340,000 tested, 0.49% active. activity change, % (no concentration beside the values). AlphaScreen GST-E1A/His-CtBP binding, 1536-well; stronger effect = lower value; control for the full effect not named in the record; in the data active means activity change below about -65%; inconclusive means about -30% to -65%; inactive means above about -30%; also: % is scaled to controls: 0 for no effect and ±100 for the full control effect; compound concentration not given in the record
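Protein mix (5X: 125 nM each GST-E1A, His-CtBP) was incubated with pinned compound 2 h at 37 deg C in dark, in 50 mM Tris pH 8.0 buffer with 300 mM NaCl. Glutathione donor and nickel acceptor beads followed; AlphaScreen signal read after 1 h.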
PINK1 modulator: modulators of PINK1 expression; PINK1 immunofluorescence, high-content cytometry, 24 h; Potency, µM (series often up to 76.6 µM), inactives show top-dose activation (PINK1 increase), most hits filed as activators; 410,000 tested, 0.2% active; active = well fitted activation curve with a large enough effect; inconclusive = small, poorly fitted or top-dose-only effect; inactive = flat fitted curve, though single readings scatter; cell line not stated here;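 also: potency is read from the fitted curve at half-maximal effect; % of control where 0% means no effect; nearly all actives have a fitted effect of over 65% in size; a mitochondrial uncoupler was the plate control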
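A stable cell line was treated with compounds at 5 concentrations for 24 hours, with CCCP as control. PINK1 levels and mitochondrial localization were measured by immunofluorescence with mitochondrial, cell and nuclear markers after fixation, read by laser-scanning cytometry.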
Six1-Eya2 blk: inhibitors of human Six1/Eya2 interaction; Q15475+O00167; AlphaScreen GST-Six1/His-Eya2 binding, biochemical; stronger effect = lower value; control for the full effect not named in the record; activity change, % (concentration not given with the values); 360,000 tested, 0.56% active; in the data active = activity change below about -65%; inconclusive = about -30% to -65%; inactive = above about -30%; also: % is scaled to controls: 0 for no effect and ±100 for the full control effect
Target sequence (O00167 whole entry, looked up): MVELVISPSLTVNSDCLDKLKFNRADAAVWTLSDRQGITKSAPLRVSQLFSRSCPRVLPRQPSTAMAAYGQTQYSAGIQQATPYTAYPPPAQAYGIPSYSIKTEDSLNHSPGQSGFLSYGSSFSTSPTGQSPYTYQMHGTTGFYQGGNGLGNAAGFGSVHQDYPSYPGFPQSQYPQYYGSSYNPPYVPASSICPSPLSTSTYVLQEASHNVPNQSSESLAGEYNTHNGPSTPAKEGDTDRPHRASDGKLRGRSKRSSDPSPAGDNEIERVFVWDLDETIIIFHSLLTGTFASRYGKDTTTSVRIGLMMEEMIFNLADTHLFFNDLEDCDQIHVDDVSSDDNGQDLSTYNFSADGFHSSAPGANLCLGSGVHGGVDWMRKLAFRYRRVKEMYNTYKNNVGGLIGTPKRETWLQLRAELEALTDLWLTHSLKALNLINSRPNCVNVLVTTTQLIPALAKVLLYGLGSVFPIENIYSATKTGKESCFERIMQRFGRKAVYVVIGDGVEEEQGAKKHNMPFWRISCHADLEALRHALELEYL
Target sequence (Q15475 whole entry, looked up): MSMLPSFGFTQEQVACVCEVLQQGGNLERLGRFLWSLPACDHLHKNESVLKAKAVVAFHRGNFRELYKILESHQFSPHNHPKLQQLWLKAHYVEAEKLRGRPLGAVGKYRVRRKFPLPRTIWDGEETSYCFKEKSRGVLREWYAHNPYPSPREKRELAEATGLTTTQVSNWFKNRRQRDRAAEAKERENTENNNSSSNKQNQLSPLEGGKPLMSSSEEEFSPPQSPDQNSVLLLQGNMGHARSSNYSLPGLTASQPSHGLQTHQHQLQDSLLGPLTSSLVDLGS
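GST-Six1 + His-Eya2 (5X stock: 250/500 nM); Tris pH 8.0, 300 mM NaCl, 0.05% BSA, 0.02% Tween 20; GSH donor/Ni acceptor beads; 1 h 37 °C dark; AlphaScreen readout.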
D2 agonist: agonists of human D2 dopamine receptor (beta-arrestin); 360,000 tested, 0.084% active; DiscoveRx PathHunter D2 beta-arrestin, luminescence, 90 min; 100% = 57 uM dopamine signal; P14416; AID 624465; activation, % (test concentration not listed); in the data active = activation above about 40%; inconclusive = about 15% to 40%; inactive = below about 15%; also: compound concentration not given in the record; the text of the record calls up to 30% inactive
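Agonist mode: compounds alone added to overnight-plated D2 PathHunter cells for 90 min at 37 C, with 57 uM final dopamine (EC100) defining full response. Beta-arrestin recruitment detected by chemiluminescent reagent, read after 1 h at ambient temperature.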
TRPML1 inh: blocks the human TRPML1 channel. Q9GZU1. TRPML1-inducible cells, Ca2+ dye fluorescence, FDSS; stronger effect = lower value; inhibition of EC80 agonist-evoked calcium signal. 390,000 tested, 0.02% active. activity change, negative = inhibition, % (test concentration not listed); in the data active means activity change below about -50%; inconclusive means about -30% to -50%; inactive means above about -30%;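 also: stimulus is agonist 54-4 at its EC80 concentration; % is scaled to controls: 0 for no effect and ±100 for the full control effect; compound concentration not given in the record; the text of the record puts the active cut at -80%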
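TRPML1-DL cells, Tet-induced overnight (~16 h, 37 °C) at 1,500 cells/well, were loaded with Ca8 no-wash dye plus quencher for 45-90 min at room temperature. Compounds were pinned during FDSS kinetic reading; agonist 54-4 at EC80 (4 uM final) then added.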
TRPML1 ag: agonists of human TRPML1 channel; AID 624414; activation, % (test concentration not listed); TRPML1-expressing cells, Ca2+ dye fluorescence, FDSS; host cell line not named in the record; reference of the full effect not given here; 410,000 tested, 0.12% active; in the data active = activation above about 50%; inconclusive = about 30% to 50%; inactive = below about 30%; also: 0% is about no effect; the text of the record puts the active cut at 80%
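Kinetic FDSS Ca2+ read in Tet-induced TRPML1-DL cells (ABD Ca8 dye plus quencher, 45-90 min RT loading): baseline, then compound, then 110 s agonist window; EC80 agonist 54-4 at 4uM final added afterwards for a 110 s antagonist window.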
Starred values were filed as active, the others as inactive; u = inconclusive; x = no result given; [ ] = another dose, or the depositor's remark.

Start of the data: the first 3 records, to show the layout:
SMILES	CtBP-E1A inh	PINK1 modulator	Six1-Eya2 blk	D2 agonist	TRPML1 inh	TRPML1 ag
CCCC(=O)N1CCCC1(C)C(=O)NCc1c(F)ccc(C)c1F (stereo not given)	-4	1.0%	4	3.2	x	-0.4
CCCCOc1ccc(C(O)(CCC)CCN2CCOCC2)cc1 (stereo not given)	11	12%	5	0.8	4	0.7
COCCN(C(=O)c1ccc(OCC(C)C)cc1)c1c(N)n(Cc2ccccc2)c(=O)[nH]c1=O	u	-1.7%	-1	-1.7	-6	0.8

The whole of this part, repeating the preview:
SMILES	CtBP-E1A inh	PINK1 modulator	Six1-Eya2 blk	D2 agonist	TRPML1 inh	TRPML1 ag
CCCC(=O)N1CCCC1(C)C(=O)NCc1c(F)ccc(C)c1F (stereo not given)	-4	1.0%	4	3.2	x	-0.4
CCCCOc1ccc(C(O)(CCC)CCN2CCOCC2)cc1 (stereo not given)	11	12%	5	0.8	4	0.7
COCCN(C(=O)c1ccc(OCC(C)C)cc1)c1c(N)n(Cc2ccccc2)c(=O)[nH]c1=O	u	-1.7%	-1	-1.7	-6	0.8
Cc1nn(C)c(C)c1S(=O)(=O)N(CC(=O)NCCN1CCOCC1)c1ccc(C(C)C)cc1	0	-0.3%	4	-6.7	-3	-0.8
O=C1NC[C@H](CCCCN2C[C@H](Cc3ccc(O)cc3)N(CC3CCCCC3)C(=O)C2=O)N(Cc2ccccc2)C1=O	3	0.2%	5	x	x	-0.4
CN1CCN(c2ccc3c(c2)OC[C@H](Cc2ccccc2)NS3(=O)=O)CC1	6	1.6%	5	x	x	-0.2
COCCCn1c(=O)c2sccc2n2c(CCCC(=O)Nc3cc(C)cc(C)c3)nnc12	x	1.5%	x	x	12	0.8
Cc1cccc(NC(=O)CNCC(=O)Nc2cccc(C)c2C)c1C	2	-0.1%	0	-6.0	x	x
O=C(COC(=O)c1ccc2c(c1)OCCO2)NCCC1=CCCCC1	-1	14%	-71*	2.3	6	1.3
Cc1c(Cl)cccc1NC(=O)Cn1cnc2nc3c(cc2c1=O)CCCC3	x	-1.1%	x	x	-17	0.8
COCCN(C(=O)COC(=O)Cc1cccc2ccccc12)c1c(N)n(Cc2ccccc2)c(=O)[nH]c1=O	2	3.1%	2	-3.0	-5	-0.2
CC(C)n1c(CNC(=O)c2ccccc2F)nnc1SCC(=O)NC1CCCCC1	-5	1.7%	-12	0.4	5	0.2
CC1(C)COC(c2cccc([N+](=O)[O-])c2)OC1	1	-1.2%	0	-2.5	1	-0.7
O=C(CCc1nc2ccccc2[nH]c1=O)OCC(=O)N1CCc2ccccc21	4	-2.4%	-7	-0.5	11	1.5
O=C1C=C(c2ccc(OC(F)(F)F)cc2)C[C@@H](c2ccc(F)cc2)C1	x	10%	8	-2.5	11	3.9
COC(=O)c1cccc(N(C(=O)c2ccco2)C(C(=O)NC2CCCC2)c2ccc(N3CCOCC3)cc2)c1 (stereo not given)	5	0.2%	6	-1.8	16	0.7
O=C(CSCc1ccc(F)cc1)Nc1ccccc1	6	1.4%[38.3 µM]	6	-1.3	5	-0.8
NS(=O)(=O)c1ccc(NC(=O)c2ccc(-c3ccccc3)cc2)cc1	0	1.0%	-5	-2.0	0	0.9
CSc1ccccc1NC(=S)NC1CCCCC1	-10	0.0%	-1	-10	1	-1.2
CC(C)NC(=O)CN1C(=O)C(C)(C)Oc2ccc(C(=O)NC3CCCCC3)cc21	3	4.0%	9	-4.8	3	0.2
CC(C(=O)N1CCc2ccccc21)N(C)CC(=O)Nc1cccc(F)c1 (stereo not given)	0	-0.5%	-2	-1.8	9	-0.4
O=C1C(Cl)=C(NCCCN2CCOCC2)C(=O)c2ccccc21	-16	-1.0%	-23	4.4	-2	0.1
Cc1ccc(NC(=O)C2CCN(S(=O)(=O)c3c(C)noc3/C=C/c3ccco3)CC2)nc1	-10	1.3%	-8	1.1	-10	-0.1
CN(CC(=O)Nc1cccc(F)c1)C(=O)CN1C(=O)C2CCCCC2C1=O (stereo not given)	7	-1.8%	3	-2.1	-4	-0.7
O=C(N[C@@H](Cc1ccccc1)C(=O)OCC(=O)N1CCOCC1)c1cccs1	-3	5.0%	6	-2.6	2	-0.4
CCN(c1ccccc1)S(=O)(=O)c1ccc(C(=O)N(CCCN(C)C)c2nc3cc4c(cc3s2)OCO4)cc1	-29	-1.5%	u	-3.0	3	0.8
Cc1ccc(C)c(N2CCN(C(=O)CCCn3c(=S)[nH]c4cc5c(cc4c3=O)OCO5)CC2)c1	-20	x	-10	3.0	-16	3.1
Cc1c(Cl)c([N+](=O)[O-])nn1Cc1ccc(C(=O)NN)o1	x	2.7%	3	-1.3	1	-0.4
CCOc1cc(Cl)c(S(=O)(=O)n2cc(C)nc2CC)cc1Cl	x	1.2%	x	x	55	-0.1
C=CCNC(=O)COC(=O)c1ccc(Cl)c(S(=O)(=O)N(Cc2ccccc2)c2ccccc2)c1	0	-1.4%	-2	-3.2	7	3.8

Rewritten with values under each structure: part of the list above
Below each SMILES: CtBP-E1A inh | PINK1 modulator | Six1-Eya2 blk | D2 agonist | TRPML1 inh | TRPML1 ag
- COCCN(C(=O)c1ccc(OCC(C)C)cc1)c1c(N)n(Cc2ccccc2)c(=O)[nH]c1=O
 : u | -1.7% | -1 | -1.7 | -6 | 0.8
- Cc1nn(C)c(C)c1S(=O)(=O)N(CC(=O)NCCN1CCOCC1)c1ccc(C(C)C)cc1
 : 0 | -0.3% | 4 | -6.7 | -3 | -0.8

(list continues)
SMILES	CtBP-E1A inh	PINK1 modulator	Six1-Eya2 blk	D2 agonist	TRPML1 inh	TRPML1 ag
CNS(=O)(=O)c1cccc(C(=O)OCC(=O)c2ccc3[nH]c(=O)[nH]c3c2)c1	-25	-3.5%	-20	-3.3	-20	0.2
FC(F)(F)c1cccc(-c2noc(CN3CCOCC3)n2)c1	2	-0.6%	0	-3.9	0	-0.1
COc1ccc2[nH]c(C(=O)O)c(CCN3C(=O)c4cccc([N+](=O)[O-])c4C3=O)c2c1	-4	6.5%	2	-0.2	-5	-0.7
COc1ccccc1CNC(=O)c1cc(Sc2cccc(Cl)c2)nc2ccccc12	x	u	x	x	28	0.7
Cc1ccc2nc(N(CCN(C)C)C(=O)C3=COCCO3)sc2c1	2	-1.6%	1	-3.3	-17	-0.3
Cc1cccc(NC(=O)CCSc2nnc(Cc3ccccc3)o2)c1	0	3.1%	-1	-1.7	-26	-0.4
COc1ccc(N=C2C(=Nc3ccc(OC)cc3)N(c3ccc(OC)cc3)C(=S)N2C)cc1	-80*	-5.6%[38.3 µM]	-69*	-2.4	4	1.3
COCOc1ccc(-c2cc(=O)c3c(O)cc(OCOC)cc3o2)cc1	-1	1.1%	7	-2.9	x	x
COc1ccc(-c2nc(C#N)c(NCCCN(C)C)o2)cc1OC	9	-0.6%[38.3 µM]	-9	-0.7	-15	0.5
CCn1cc(/C=C(\NC(=O)c2ccc(C)cc2)C(=O)NCCCn2ccnc2)c2ccccc21	x	-4.8%	x	x	-12	0.2
O=C(Cn1cnc2c(cnn2-c2ccc(F)cc2)c1=O)N1CCN(c2ccccc2)CC1	8	1.8%	7	2.7	12	1.7
COC(=O)C(C)Sc1ncnc2c1nnn2-c1ccc(F)cc1 (stereo not given)	6	0.3%	-13	-2.9	8	-0.5
C[C@@H]1CN([C@@H](C)CO)C(=O)Cc2cc(NC(=O)Nc3cccc4ccccc34)ccc2O[C@@H]1CN(C)Cc1ccc(C(F)(F)F)cc1	-6	3.5%	-12	-1.1	8	-0.4
Cc1ccc(S(=O)(=O)C(CNC(=O)C(=O)NCCc2ccccc2)c2ccco2)cc1 (stereo not given)	x	0.0%	x	x	9	2.4
CC(C)Oc1ccc(CCc2nnc(SCC(=O)O)n2-c2ccccc2)cc1	1	3.3%	11	-0.4	10	0.1
COc1ccc(NC(=O)c2ccco2)cc1NC(=O)COc1ccccc1[N+](=O)[O-]	8	11%	-12	1.1	24	-1.1
CCOC(=O)c1c(-c2cccc(C)c2)csc1NC(=O)c1c(-c2ccccc2)noc1C	2	1.3%	4	1.2	-1	-0.2
O=C1CN(C(=O)CSc2nc(-c3ccc(Cl)cc3)cs2)c2ccccc2N1	x	-0.4%	1	3.0	7	1.7
O=C(CSc1nc2ccccc2c(=O)n1CCC(=O)NC1CCCCC1)Nc1ccccc1Cl	x	1.6%	x	x	5	0.2
CC(C)C[C@H]1CN(CCCC[C@@H]2CNC(=O)C(=O)N2Cc2ccccc2)C(=O)C(=O)N1CCC1CCCCC1	1	-0.2%	-7	x	x	-0.8
Nc1nnnn1CC(=O)N/N=C/c1ccccn1	-22	0.4%	u	-19	35	1.0
NC(=O)/C(=N\O)c1ccccc1	13	-1.1%	19	-3.7	12	-0.2
Cc1ccc(OCCn2cc(/C=C(\C#N)C(=O)NCC3CCCO3)c3ccccc32)cc1C (stereo not given)	0	4.5%	-11	0.8	69	0.2
CCCn1cnc2c(SCc3ccccn3)nc(N)nc21	-8	3.3%	u	1.9	1	0.1
CCO[C@@H]1c2c(ccc3ccc(=O)oc23)OC(C)(C)[C@@H]1O	5	0.7%	1	-0.4	-5	-0.1
O=C(N/N=C/c1ccc(-c2ccccc2[N+](=O)[O-])o1)[C@H]1C[C@@H]1c1ccccc1	u	3.6%	u	4.3	15	3.4
COc1ccccc1N(C(=O)CNC(=O)c1ccco1)C(C(=O)NC1CCCC1)c1ccncc1 (stereo not given)	2	-0.3%	-1	-1.4	8	0.1
Cc1ccccc1OCCCn1c(CO)nc2ccccc21	8	-0.7%	0	-0.9	-2	-1.3
CC(=O)NN=C(C)c1ccc(NC(=O)C2CC2)cc1	2	1.5%	6	-2.2	-20	-0.2
CC(C)N1CC(C(=O)Nc2ccc(Cl)cc2Cl)CC1=O (stereo not given)	-6	0.5%	2	-1.7	-4	-0.2
CCN(CC)S(=O)(=O)c1ccc(C)c(NC(=O)COc2ccc(Cl)cc2Br)c1	2	3.0%	0	-3.3	8	-0.7
COc1ccc(Cl)cc1NC(=O)CN1CCC(n2nnc3cc(C)ccc32)CC1	0	0.7%	-2	-0.2	-4	2.8
Cc1cccn2c(=O)c(C=C(C#N)C#N)c(N3CCN(c4ccccc4)CC3)nc12	-17	-0.5%	u	0.2	0	-0.8
O=C(C1CC(=O)N(c2ccccc2)C1)N1CCN(C2=NS(=O)(=O)c3ccccc32)CC1 (stereo not given)	-2	0.1%[38.3 µM]	1	-0.5	18	0.4
O=C(COC(=O)Cn1cc(C(F)(F)F)ccc1=O)Nc1ccc(Br)cc1F	-3	1.4%	13	-0.6	-15	0.6
CCC1CCc2nc3sc(C(=O)Nc4ccc(C)cc4)c(N)c3cc2C1 (stereo not given)	x	3.0%	x	x	-17	-0.3
CCOc1cc(NC(=O)c2ccccn2)c(OCC)cc1NC(=O)c1ccc(Cl)cc1	x	3.2%	8	-5.5	16	-0.8
N#Cc1nc(-c2ccc(Cl)cc2)oc1N1CCCCC1	-16	-1.8%[38.3 µM]	-12	-0.7	31	2.1
O=C(NCc1ccncc1)C(=O)NCC1OCCN1S(=O)(=O)c1ccc(F)cc1 (stereo not given)	3	0.0%	8	4.0	-6	0.2

This is a random part of the collection; any-hit rate near 1%.
